Screening results (PubChem BioAssay)
Calb biofilm kill: clotrimazole potentiators killing C. albicans biofilm, primary screen, 4-compound mixtures; AID 1242, 2008; C. albicans biofilm persisters + clotrimazole, fluorescence viability; primary screen in compound mixtures of four per well; 0.02% of 120,000 active; inhibition, % at 7.6 µM;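 active = inhibition above 30.3% in the primary screen of four-compound pools, then above 30% when the compound was retested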;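 also: compounds exposed to preformed 24 h biofilms for 48 h; the number belongs to the whole pool; some results filed as inactive read as strong as hits; inactives centre near 12; 0% = biofilm with clotrimazole alone and 100% = kill control; retested singly at about 60 µM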
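Test system: C. albicans CAF4-2 wild-type biofilms; buffer or medium: RPMI/MOPS medium, pH 7.0; schedule: 24 h biofilm formation, then 48 h compound exposure, 37 °C; detection: Alamar Blue fluorescence; measure: percent inhibition of biofilm viability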
An asterisk follows results filed as active; & = joins results of further samples. An excerpt. The share of hits here may be higher or lower than overall.

| structure | Calb biofilm kill |
| --- | --- |
| Cc1[nH]c(=O)[nH]c(=O)c1CSCC(=O)OCC(=O)c1ccc(Br)cc1 | 5 |
| NC1=NN=C(N2N=C(c3ccco3)CC2(O)C(F)(F)F)n2ncnc2C1 (stereo not given) | 12 |
| NC(=S)Nc1cccc2cn[nH]c12 | 12 |
| COCCCNC(=S)NC1CCCCC1 | 13 |
| O=C(CNC(=O)c1ccc(S(=O)(=O)N2CCCC2)cc1)N/N=C/c1ccc(Cl)cc1Cl | 15 |
| CC(=O)c1cccc(CN2CCN(CCc3ccccc3)C(CCO)C2)c1 (stereo not given) | -1 |
| COc1ccc(C(C(=O)NCC2CCCO2)N(C(=O)CNC(=O)c2cccs2)c2ccc(C(C)=O)cc2)cc1OC (stereo not given) | 17 |
| c1ccc(-c2csc3ncnc(NCCCN4CCOCC4)c23)cc1 | 12 |
| Cc1ccnc(NS(=O)(=O)c2ccc(NC(=O)C3C4C=CC(C4)C3C(=O)O)cc2)n1 (stereo not given) | 3 |
| CCC(C)C1=CC(=Nc2c(C)n(C)n(-c3ccccc3)c2=O)C=C(C(C)CC)C1=O (stereo not given) | -8 |
| Cc1cc(C)cc(Oc2ccc(-c3nnc(-c4ccccc4)o3)cc2[N+](=O)[O-])c1 | 7 |
| Fc1cccc(-n2ncc(-c3nnnn3-c3ccccc3)c2C(F)(F)F)c1 | 9 |
| CN(C)CCNC(=O)CNC(=S)N(CCCN1CCOCC1)Cc1cccs1 | 17 |
| CC(=O)N1CCC(N(CCN2CCOCC2)C(=S)Nc2ccc(C)c(C)c2)CC1 | 29 |
| CCOC(=O)/C(C#N)=C(\O)c1ccc(NC(=O)c2ccc([N+](=O)[O-])cc2)cc1 | 16 |
| CCOc1ccc(-n2c(N)c(-c3nc4ccccc4n3C)c3nc4ccccc4nc32)cc1 | 11 |
| Cc1ccc(Nc2nnc(SCc3cc(=O)n4cc(C)ccc4n3)s2)cc1 | 15 |
| CCn1cc[n+](C)c1P(c1ccccc1)c1ccccc1 | 11 |
| CC(C)c1ccc(C(C(=O)NC2CCCC2)N(C(=O)CNC(=O)c2ccco2)c2cccnc2)cc1 (stereo not given) | 14 |
| COC(=O)c1ccc(-c2nc3cc(N)ccc3o2)cc1 | 8 |
| COc1ccc(NC(=O)O/N=C/c2ccncc2)cc1 | 14 |
| Nc1ccc(Oc2cccc(Oc3ccc(N)cc3)c2)cc1 | 28 |
| COCc1[nH][nH]c(=O)c1C=NCC(=O)OC | 22 |
| O=C(COC(=O)CCC1CCCC1)Nc1ccc(Cl)cc1F | 4 |
| COc1ccc(/C=N/NC(=O)c2cc(-c3cccnc3)nc3ccccc23)c(OC)c1 | 14 |
| COc1cc(NCCC(=O)c2cccs2)c(OC)cc1Cl | 15 |
| CC(=O)NCc1ccc(C(=O)O)cc1 | 20 |
| CS(=O)(=O)Nc1cccc(-c2cn3ccccc3n2)c1 | 13 |
| CCN(CCO)c1ccc(NC(=S)Nc2cccc(S(=O)(=O)N(C)C)c2)cc1 | 9 |
| O=C(/C=C/c1ccco1)N1CCC(Cc2ccccc2)CC1 | 11 |
| CCSc1nc2ccccc2c(=O)n1Cc1ccc(F)cc1 | -6 |
| COc1ccc(C(=O)NCC(=O)N/N=C(\C)c2ccco2)cc1OC | 7 |
| CC(=O)Nc1c(Cl)cc([N+](=O)[O-])c2ccccc12 | 4 |
| CN(C)c1ccnc(Nc2ccc(O)cc2)c1C#N | 33 |
| O=C(CCCOc1ccccc1)NC1CCCc2ccccc21 (stereo not given) | 8 |
| COc1ccccc1-c1nnc(SCC(=O)O)n1-c1ccccc1 | 0 |
| Cc1ccc(C(=O)N[C@H](C(=O)OCc2cc(=O)oc3cc(C)ccc23)C(C)C)cc1 | 12 |
| CCOCC(=O)Nc1cc(C)on1 | 8 |
| COc1ccc2[nH]c(C(=O)NCCc3ccccc3)cc2c1 | 11 |
| Cc1ccc(C(=O)N/C(=C\c2cccs2)C(=O)NCCCn2ccnc2)cc1 | 16 |
| COc1ccc(NC(=O)CC2Nc3cc(C)c(C)cc3NC2=O)c([N+](=O)[O-])c1 (stereo not given) | 8 |
| CCN(CC)C(=O)COc1ccc2oc(-c3ccco3)cc(=O)c2c1 | 12 |
| O=C1N=C(C=c2ccc(=Cc3[nH]c(=O)[nH]c3O)cc2)C(=O)N1 | 11 |
| COc1cccc(CNC(=O)C(=O)NCCc2ccc(OC)c(OC)c2)c1 | -9 |
| Cc1ccc(-c2cc3ncc(C#N)c(N)n3n2)cc1 | -3 |
| COCCNc1nc2nonc2nc1N1C[C@H]2CC[C@H]1C2 | 4 |
| Cc1nc(NCc2ccccc2)sc1C(=O)Nc1ccccc1 | 14 |
| COc1cc(C(=O)NCCc2c[nH]c3ccccc23)ccc1OCc1c(C)noc1C | 1 |
| COc1ccc(C(C(=O)NC(C)(C)C)N(Cc2cccs2)C(=O)CCC(=O)Nc2cc(C)on2)cc1 (stereo not given) | 4 |
| COc1ccnc(-n2cccc2/C=N/O)c1C#N | 8 |
| COc1ccc(NC(=O)COC(=O)/C=C/C(=O)OCC(=O)Nc2ccc(OC)c(Cl)c2)cc1Cl | 13 |
| Fc1ccc(-c2cc(C(F)(F)F)nc(NCc3cccs3)n2)cc1 | 13 |
| COc1ccc(CCNC(=O)C(=O)N2CCCCC2)cc1OC | 17 |
| CC(=O)c1ccc2noc(-c3ccc(Cl)cc3)c2c1 | 12 |
| N/C(Cn1cncn1)=N\NC(=O)C(=O)Nc1ccc(Cl)cc1Cl | -14 |
| S=C(Nc1ccc(Cl)c(Cl)c1)NN1CCOCC1 | 21 |
| O=[N+]([O-])c1cc(C(F)(F)F)cc([N+](=O)[O-])c1NCCCNc1ccc([N+](=O)[O-])c2cccnc12 | 19 |
| Cc1ccc(-c2nc(P(=O)(c3ccccc3)c3ccccc3)c(N3CCOCC3)o2)cc1 | 19 |
| CCCn1c(NCc2ccco2)nc2c1c(=O)n(C)c(=O)n2C | 6 |
| CC(Oc1ccc(Cl)cc1Cl)c1nc(-c2ccc(NC(=O)c3ccncc3)cc2)no1 (stereo not given) | -5 |

The listing continues:
| structure | Calb biofilm kill |
| --- | --- |
| C/C(=N/OC(=O)c1c(-c2c(Cl)cccc2Cl)noc1C)c1cnccn1 | 9 |
| COc1cc(/C=C/C(=O)Nc2nc3ccc(S(=O)(=O)N(C)C)cc3s2)cc(OC)c1OC | 5 |
| CC(OC(=O)c1ccc(S(=O)(=O)N(C)c2ccccc2)cc1)C(=O)NCCC1=CCCCC1 (stereo not given) | 8 |
| C[C@]12CCC(O)CC1CCC1C2CC[C@]2(C)C(c3cc(C(F)(F)F)n[nH]3)CCC12 (stereo not given in full) | 21 |
| CCn1c(SCC(=O)N/N=C/C=C/c2ccco2)nnc1-c1ccccc1 | 9 |
| Cc1ccc(COc2ccsc2C(=O)NNC(N)=S)cc1 | -12 |
| COc1cc(C(=O)NCC2CCCO2)cc(OC)c1OC (stereo not given) | 15 |
| O=C1NN(c2ccc(Cl)cc2)C(=O)/C1=C\c1ccc(-c2cccc(C(=O)O)c2)o1 | 19 |
| CCOC(=O)C(NC(C)=O)C(=O)Nc1ccc(C(C)C)cc1 (stereo not given) | 20 |
| CC(Sc1nnnn1C)C(=O)NC(=O)NC1CCCCC1 (stereo not given) | 4 |
| COC(=O)c1[nH]c2ccc(Cl)cc2c1NC(=O)c1ccccc1[N+](=O)[O-] | 15 |
| C[C@@H](C(=O)NCc1ccccc1)[C@H]1C[C@]1(C)[C@H](NC(=O)OCc1ccccc1)c1ccccc1 | 2 |
| N/C(=N\OC(=O)CC1CCCCC1)c1ccccc1 | 7 |
| CN1CCC(=NNc2ccc(S(=O)(=O)N3CCOCC3)cc2[N+](=O)[O-])CC1 | 11 |
| CC#CCc1cc2ccccc2c(=O)o1 | 19 |
| O=C(Cc1ccccc1F)Nc1nc(-c2cccnc2)cs1 | 10 |
| O=C(Cn1cc2c(n1)CCCCC2)Nc1c(F)cc(F)cc1Br | 21 |
| O=C(CN1C(=O)CCC1=O)c1ccc(-c2ccccc2)cc1 | 7 |
| CN(C)/C=C/C(=O)c1cccc(Oc2ncccn2)c1 | 17 |
| O=C(CSc1nnc(-c2c[nH]c3ccccc23)n1-c1ccc(F)cc1)NCc1ccco1 | 13 |
| O=C(CCNS(=O)(=O)c1ccc(Br)s1)NCc1ccccc1 | 23 |
| Cc1ncc(S(=O)(=O)C(C)(C)C)c(N)n1 | 10 |
| COc1cccc(-n2c(C)c3c(OC)cccc(=O)c3c2C)c1 | -7 |
| OCCN(CCO)CC(O)COc1ccc(Br)cc1 (stereo not given) | 10&6 |
| O=C(c1ccc(Cl)nc1)c1cccs1 | 17 |
| COc1ccc(C(=O)C2CCCN(C(=O)c3noc4c3CCCC4)C2)c(C)c1 (stereo not given) | 15 |
| CCOC(=O)N1CCc2c(sc(NC(=O)CN3CCOCC3)c2C#N)C1 | 12 |
| CCN(CC)P(=O)(Nc1ccccc1Br)c1ccc(N(C)C)cc1NC(=O)c1ccco1 (stereo not given) | 3 |
| CCC(C)NS(=O)(=O)c1ccc(NC(=O)C(Sc2ccccc2)c2ccccc2)cc1 (stereo not given) | -6 |
| CC(C)(C)NC(=O)C(c1ccccn1)N(C(=O)c1csnn1)C1CCCC1 (stereo not given) | 13 |
| Cc1nc(C(=O)Nc2ccccc2)sc1C1(C)CC(c2cccnc2)=NO1 (stereo not given) | 12 |
| COCCN(C(=O)CC1C(=O)NCCN1Cc1ccc(-c2ccccc2)cc1)C(C)C (stereo not given) | 5 |
| O=C(c1ccoc1)N1CCC2(CC1)Oc1ccc(Cl)cc1C(=O)C21CC(c2ccccc2)=NO1 (stereo not given) | 1 |
| C=C(C)Cn1c(N2CCN(c3ccc(OC)cc3)CC2)nc2c1c(=O)n(C)c(=O)n2C | -5 |
| CCN(c1ccccc1)S(=O)(=O)c1ccc(Cl)c(NC(=O)CSc2nncs2)c1 | 16 |
| CSCCCNC(=O)c1ccccc1OC1CCN(S(C)(=O)=O)CC1 | 4 |
| O=C(O)c1cc(-c2ccc(Cl)cc2)n(-c2ccccc2)n1 | 7 |
| Cc1c([N+](=O)[O-])c([N+](=O)[O-])nn1CC(=O)NCc1cccnc1 | 29 |
| Cc1sc2nc(COC(=O)c3cccc(S(=O)(=O)N(C)c4ccccc4)c3)[nH]c(=O)c2c1C | 7 |
| CCOC(=O)N1CCC(N(CCN(C)C)C(=S)Nc2ccc(F)c(Cl)c2)CC1 | 12 |
| O=C(Cc1ccccc1)NNC(=O)C1CCCC1 | 9 |
| Cc1ccc(NC(=S)N/N=C2\CC(C)(C)Oc3ccc(O)cc32)cc1 | -1 |
| COc1cc([N+](=O)[O-])ccc1NC(=O)/C=C/C(=O)O | 9 |
| O=C(CS(=O)(=O)c1ccccc1)Nc1ccccn1 | 17 |
| CCCCCCn1c(N)c(C#N)c2ccc([N+](=O)[O-])cc2c1=O | 5 |
| O=C(O)CCC(=O)N1CCN(c2ncccn2)CC1 | 1 |
| Cc1ccccc1C(=O)/C=C1/SCC(=O)N1C | 18 |
| S=C(NCCc1ccccc1)Nc1ccc(Cl)cc1 | 7 |
| CCNC(=O)Cc1c(OC)ccc2cc(Br)ccc12 | 19 |
| Cc1csc(NC(=O)CCNC(=O)c2ccccc2Cl)n1 | 14 |
| O=C(CNC(=O)c1ccccc1F)OCc1nc2ccccc2s1 | -4 |
| N#CCN1CCCC(C(N)=O)C1 (stereo not given) | 10 |
| CCCCCCCCCCOC(=O)C[N+](C)(C)C/C=C(/C)Cl | 8 |
| Nc1cc(C(F)(F)F)cc([N+](=O)[O-])c1N | 6 |
| COc1cc(C(=O)NCC(=O)OCc2ccccc2Cl)cc(OC)c1OC | 10 |
| CC(C)(C)c1ccccc1OCCOCCN1CCCCCC1 | 24 |
| Cn1cc(CN2CCC(CO)CC2)c(-c2ccc(Oc3ccccc3)cc2)n1 | 3 |
| Cc1ccc(CNC(=O)COc2ccc(C(=O)c3ccc(F)cc3)cc2)cc1 | 14 |
| COc1ccc2nc3sc(C(=O)NCCCN4CCc5ccccc5C4)cc3cc2c1 | 19 |
| CCOC(=O)Cn1c(=O)c(-c2cc(Br)ccc2N)nc2ccccc21 | 21 |

Remaining list, next part.
| structure | Calb biofilm kill |
| --- | --- |
| CCN1CCCC1CNC(=O)C(=O)NC(C)C (stereo not given) | 17 |
| COc1ccc2nc(N(CCN(C)C)C(=O)/C=C/c3cccs3)sc2c1 | 12 |
| Cc1ccc2c(Cn3cc(C(F)(F)F)cc(Cl)c3=O)cc(=O)oc2c1 | 11 |
| C/C(=N\NC(=O)Cn1nnc2ccccc21)c1ccco1 | 10 |
| COc1ccc(C(=O)Nc2ccc(C)cc2C(=O)c2ccccc2)c(OC)c1 | -6 |
